From PubChem
gsp ag – agonists of gsp mutant (McCune-Albright syndrome). gsp mutant cells, cAMP HTRF, 30 min; control for the full effect not named in the record. Potency, µM (top dose mostly 76.9 µM), without a hit: top-dose activation (cAMP increase), actives largely listed as activators. hit rate 0.13% among 340,000. AID 624287; active = well fitted activation curve with a large enough effect; inconclusive = small, poorly fitted or top-dose-only effect, or another doubt; inactive = no such curve, though single readings can be large or run the other way; cell line not stated here;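 note: phosphodiesterase inhibitor Ro 20-1724 added with compounds to block cAMP breakdown; potency is the fitted concentration of half-maximal effect; nearly all actives have a fitted effect of over 60% in size; about a fifth of the inactives were tested at one dose only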
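Cells stably selected in G418 were plated at 2000/well, grown 16-24 hr, then given compounds in DMSO with the PDE inhibitor […] (300 uM solution added) for 30 min at 37C; cAMP was read by HTRF.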
TRPV1 potentiator – enhances activation of the human vanilloid receptor TRPV1; potentiation, % at 8.33 µM; TRPV1-expressing cells, Fluo-8 calcium influx, capsaicin EC20 potentiation; host cell line not named in the record; control for the full effect not named in the record; Q8NER1; hit rate 0.02% among 320,000; AID 540277; active means potentiation above 80%; inconclusive means 30% to 80%; inactive means below 30%; note: 0% is about no effect
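Cells expressing TRPV1 were dye-loaded with Fluo-8 and read kinetically: 10 s baseline, 3 min after compound (agonist portion), then 2 min after EC20 capsaicin (allosteric enhancer portion). Calcium-bound dye fluorescence at 480/520 nm.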
ClpP mod – qHTS Assay for Activators of ClpP. AID 651965, 2013. purified B. subtilis ClpP, FRET peptide cleavage, 20 min. Potency, µM (highest dose often 57.5 µM), for the others: at the highest dose activity change, negative = active. ATP-dependent Clp protease proteolytic subunit (Bacillus subtilis (strain 168)), P80244. hit rate 1.9% among 340,000; active = well fitted falling curve with a large enough effect; inconclusive = small, poorly fitted or top-dose-only effect; inactive = no such curve, though single readings can be large or run the other way; note: potency is the fitted concentration of half-maximal effect; the source files actives as falling curves though it sought activators and does not explain the sign; nearly all actives have a fitted effect of over 65% in size; many hits overshoot -100%
Target sequence (P80244 whole entry, looked up): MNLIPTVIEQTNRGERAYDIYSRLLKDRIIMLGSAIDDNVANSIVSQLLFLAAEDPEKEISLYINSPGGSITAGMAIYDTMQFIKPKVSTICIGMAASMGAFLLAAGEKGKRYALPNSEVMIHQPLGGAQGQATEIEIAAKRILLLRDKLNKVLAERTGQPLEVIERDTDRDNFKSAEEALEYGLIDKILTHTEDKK
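Purified B. subtilis ClpP, 10 microg/mL final in Tris/HCl pH8 with KCl, BSA, glycerol and Tween-20, cleaved an Abz/nitrotyrosine-quenched decapeptide. Fluorescence (ex 320, em 430) was read at 0 and 20 min at room temperature. Delta was normalized to 5.8 microM ADEP and DMSO/no-enzyme controls.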
Sfp PPTase inh – Sfp phosphopantetheinyl transferase inhibition. hit rate 3.5% among 310,000. Potency, µM, inactives show max response, negative = inhibition, actives largely listed as inhibitors. Q9F4F7. Biochemical Sfp PPTase activity, qHTS; active = well fitted inhibition curve with a large enough effect; inconclusive = small, poorly fitted or top-dose-only effect, or another doubt; inactive = no such curve, though single readings can be large or run the other way;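 note: the enzyme is Sfp with the accession as filed and its product quenches rhodamine fluorescence; potency is the fitted concentration of half-maximal effect; 0% = enzyme reaction without inhibitor and -100% = no enzyme wells; top concentration of the series not given in the record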
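After 15 min at room temperature with compound, 15 nM Sfp received 5 uM rhodamine-CoA plus 12.5 uM BHQ-2-ybbR (50 mM Hepes pH 7.6, 10 mM MgCl2). Rate came from the fluorescence difference over 30 min, ex 525/em 598 nm.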
Menin-MLL FL inh – menin-MLL binding inhibition, fluorescein peptide. Fluorescence polarization, fluorescein-MLL peptide displacement from menin. FP activity change, % at 61.4 µM. 290,000 tested, under 10 active. AID 1766; inconclusive = falling polarisation curve, or a change in total fluorescence; inactive = total fluorescence flat and polarisation flat or rising; no compound was filed as active; the % refers to the polarisation; negative = inhibition;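 note: % of control where 0% means no effect; inhibitors lower the polarisation; unlabelled MLL peptide was the positive control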
D2 PAM – potentiates the human D2 dopamine receptor allosterically; hit rate 0.23% among 360,000; potentiation, % (no concentration beside the values); DiscoveRx D2 beta-arrestin cells, luminescence, 90 min; 100% = 57 uM dopamine signal; AID 624464; active = potentiation of 50% or more; inconclusive = 30% to 50%; inactive = 30% or less;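 note: compound concentration not given in the record; tested on top of an EC20 dose of dopamine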
Target sequence (P14416 whole entry, looked up): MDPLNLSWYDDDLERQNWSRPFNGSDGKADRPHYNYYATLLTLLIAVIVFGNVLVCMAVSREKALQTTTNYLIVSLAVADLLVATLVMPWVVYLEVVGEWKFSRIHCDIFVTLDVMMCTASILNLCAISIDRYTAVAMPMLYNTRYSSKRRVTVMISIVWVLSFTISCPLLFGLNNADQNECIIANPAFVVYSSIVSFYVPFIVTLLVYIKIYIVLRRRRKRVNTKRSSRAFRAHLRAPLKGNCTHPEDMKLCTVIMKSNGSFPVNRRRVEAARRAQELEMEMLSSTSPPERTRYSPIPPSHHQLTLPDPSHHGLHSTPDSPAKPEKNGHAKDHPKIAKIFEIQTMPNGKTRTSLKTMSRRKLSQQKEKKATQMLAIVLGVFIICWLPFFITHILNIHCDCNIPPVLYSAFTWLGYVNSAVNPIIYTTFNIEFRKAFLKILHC
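D2 cells co-treated with compound plus 50 nM dopamine (EC20) for 90 min at 37 deg C to detect potentiation. Beta-arrestin recruitment was read as enzyme-fragment luminescence after 1 h at ambient temperature. Full response was set by 57 uM dopamine.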
gsp antagonist – antagonizes gsp, the McCune-Albright syndrome mutation; gsp-mutant cells, cAMP HTRF, 30 min; control for the full effect not named in the record; Potency, µM (series often up to 76.9 µM), for inactives: top-dose activity change, negative = inhibition, most hits filed as inhibitors; hit rate 0.4% among 340,000; active = falling curve of any shape with a large fitted effect; inconclusive = falling curve, mostly with a smaller effect; inactive = flat or rising curve; cell line not stated here;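 note: intracellular cAMP measured with PDE inhibitor Ro 20-1724 present during compound exposure; potency is the fitted concentration of half-maximal effect; % is set by controls: 0 for no effect and ±100 for the full control effect; nearly all actives have a fitted effect of over 65% in size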
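Cells, 2000/well, grown 16–24 h in DMEM 10% FBS with 0.5 mg/ml G418, then compounds plus […] (300 uM addition stock), 30 min at 37C. cAMP read by HTRF (cAMP-d2 and anti-cAMP antibody-K in lysis buffer) after 30 min RT.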
* hit, by the source's call; ? = inconclusive; . = no result given; & = joins results of further samples; [ ] = dose if it differs, or a comment. Not a hit list; about 5.1% have a hit in one of these screens.

Values in the order – gsp ag	TRPV1 potentiator	ClpP mod	Sfp PPTase inh	Menin-MLL FL inh	D2 PAM	gsp antagonist
> COc1ccccc1CCc1nnc(CCC(=O)NCCCOc2cccnc2)o1
 : 28%	0	-1.0%	1%	-1.8	0	3%
> CCOC(=O)CNC(=O)c1nn(-c2ccc(OCC)cc2)c(=O)c2ccccc12
 : 1%	2	-4.2%	-10%	-2.2	-13	-2%
> Cc1ccsc1/C=N/n1c(-c2ccccn2)n[nH]c1=S
 : -6%[15.4 µM]	-1	-0.1%	?	.	-11	-6%
> COc1ccc2sc(NC(=O)c3ccco3)nc2c1
 : -64%[inhibitor]	-12	-1.7%	-2%	2.4	-7	-5%
> COc1ccccc1N1CCN(C(=O)c2onc(C)c2Cl)CC1
 : ?	-8	-0.9%	5%	-7.7	-5	-6%
> Cc1cccc(S(=O)(=O)NCCNS(=O)(=O)c2cccc(C)c2)c1
 : -10%[15.4 µM]	-13	.	13%	.	2	10%
> COc1ccc(CNC(=O)c2ccc3ccccc3n2)cc1OC
 : -8%[15.4 µM]	-23	-14%	2%	-6.6	-6	-7%
> CCOc1ccc(NC(=O)CN(C)C(=O)c2cn3ccccc3n2)cc1OCC
 : 2%[15.4 µM]	3	0.9%	.	.	-1	8%
> COc1ccc(OCC2CNC(=O)O2)cc1 (stereo unspecified)
 : ?	4	-0.5%	1%	0.1	-20	4%
> Cc1c(C(=O)N(Cc2ccncc2)CC2CCCO2)oc2c(F)cccc12 (stereo unspecified)
 : 10%	-5	-0.1%	0%	.	-10	-20%
> COc1ccc(-c2cccc(-c3cc(=O)oc4cc(OC)c(OC)c(OC)c34)c2)cc1
 : .	.	?	-13%	0.8	1	-2%
> Cc1ccc(/C=C/C(=O)NN2CCN(C)CC2)cc1
 : 2%	10	2.3%	-2%	-0.6	0	-1%
> CC(=O)N(CCC(c1ccco1)C(C)C)Cc1ccc(Cl)cc1 (stereo unspecified)
 : -7%[15.4 µM]	3	.	-20%	?	1	1%
> Cc1ccc(S(=O)(=O)N2CCN(CC(=O)NC3CCCc4ccccc43)CC2)cc1C (stereo unspecified)
 : -7%&-43%	-6	1.3%	-7%	2.9	-6&-7	?
> COc1ccccc1OCCNC(=O)c1cccc(S(=O)(=O)N2CC(C)OC(C)C2)c1 (stereo unspecified)
 : 2%	2	-2.1%	9%	-3.9	3	-6%
> COCCn1c(SCc2cccnc2)nnc1-c1ccco1
 : -39%[inhibitor]	0	?	20µM*	1.5	-24	15%
> CC1(C)CC(=O)C=C(NCCN2CCN(C(=S)Nc3ccccc3)CC2)C1
 : -1%[15.4 µM]	4	-0.2%	-11%	-1.5	-13	18%
> O=C(Nc1cc(C(F)(F)F)ccc1N1CCOCC1)c1cccc(F)c1
 : -15%	4	0.9%	-9%	2.2	3	0%
> Nc1c(C(=O)Nc2ccc(Cl)cc2)sc2nc(N3CCOCC3)c3c(c12)CCCC3
 : 10µM*	-9	3.8%	-10%	.	-10	-2%
> CCCCN(CC)CCCNC(=S)Nc1ccc2nc(N3CCN(CC)CC3)cc(C)c2c1
 : 11%[15.4 µM]	-2	.	6%	2.2	-10	5%
> COC(=O)C1=C(C)N(CCCC(=O)O)C(=O)NC1c1ccc(Cl)cc1 (stereo unspecified)
 : ?	.	0.8%	.	.	-8	7%
> Cc1cc(C)cc(N2CC(c3nc4ccccc4n3C)CC2=O)c1 (stereo unspecified)
 : 1%	7	-0.9%	11%	-2.8	-6	-5%
> CCC(=O)Nc1sc(Cc2ccc3c(c2)OCO3)c(C)c1C(N)=O
 : 24%	-1	-0.9%	40µM*	-3.3	0	1%
> CCOc1ccc2c(c1)c(=O)c(S(=O)(=O)c1ccc(CC)cc1)cn2C
 : ?	-14	-10%	3%	9.1	-8	2%
> Cc1ccc(S(=O)(=O)NCCSc2ccccc2)cc1[N+](=O)[O-]
 : -18%	2	?	7%	5.1	1	2%
> COc1ccccc1-c1ccc(SCc2cccc(C)c2)nn1
 : 18%[15.4 µM]	15	-20%	-16%	0.9	-6	-1%
> Cc1nc(CSc2n[nH]c(=O)n2-c2ccccc2)cs1
 : 0%	-11	-0.9%	-7%	3.6	-21	4%
> CCOc1cc(N2CCOCC2)c(OCC)cc1NC(C)C(=O)N1CCC(C)CC1 (stereo unspecified)
 : ?	-16	2.4%	-2%	3.3	22	-13%
> COc1ccc(-c2noc(-c3ccc(Cl)cc3[N+](=O)[O-])n2)cc1OC
 : -2%	2	28µM*	-21%	-0.9	89*	-10%
> CC(=O)Nc1ccc2ccccc2c1
 : 9%	1	-1.4%	12%	2.1	-9	0%
> COCCNc1nnc(SCC(=O)N2CCN(S(=O)(=O)c3ccccc3)CC2)s1
 : 19%	3	0.5%	1%	1.7	-8	5%
> COc1ccc(NC(=O)CC2CCCCC2)cc1OC
 : -20%	0	1.0%	-1%	1.7	-16	8%
> Cc1ccc(/C=C(\NC(=O)c2ccccc2)C(=O)NCCc2ccccn2)o1
 : -4%	-5	-8.9%	-31%	-0.1	-13	6%
> NNC(=O)CNC(c1ccccc1)c1cc(Cl)ccc1NC(=O)c1ccccc1 (stereo unspecified)
 : -2%	4	-9.7%	6%	-16	-4	-5%
> O=C1c2ccccc2NC(c2ccc(Br)s2)N1O (stereo unspecified)
 : 16µM*	.	-1.9%	.	.	-21	-2%
> Cc1ccccc1N/C(SCc1ccc(Cl)cc1)=C(/C#N)C(N)=O
 : 7%[15.4 µM]	-5	1.0%	9%	11	-1	-33%
> Cc1cc(O)c(CN(C)C)c2c1C(=O)/C(=C/c1ccco1)O2
 : ?	3	0.2%	-27%	?	-5	-17%
> CC1Oc2ccccc2C=C1/C=N/NC(=O)c1ccncc1 (stereo unspecified)
 : 5%[15.4 µM]	-14	-6.1%	14%	2.0	-4	4%
> O=C(/C=C/c1ccc(F)cc1)NC(=S)N1CCOCC1
 : 5%[15.4 µM]	9	.	-11%	0.7	-2	-17%
> Cc1cc(O)c(NC(=O)c2ccco2)cc1C
 : -32%	-16	0.2%	-10%	-2.2	-6	11%
> COc1cc2c(cc1OC)C1Cc3ccc(OC)c(OC)c3C[N+]1([O-])CC2 (stereo unspecified)
 : .	?	-3.4%	16%	1.4	-16	11%
> CC1CCCC(C)N1C(=C(Cl)Cl)C(=C1SCCS1)[N+](=O)[O-] (stereo unspecified)
 : 9%[15.4 µM]	-13	.	0%	-1.0	-5	-11%
> COc1cc(=O)n(C)c2cc(N(C)C)ccc12
 : 8%	-2	-56%	-15%	13	3	-4%
> CCN1CCCC1CNS(=O)(=O)c1cccc(C(F)(F)F)c1 (stereo unspecified)
 : -20%[15.4 µM]	8	.	3%	-3.5	-5	6%
> CSc1nc2c(c(=O)n1-c1ccccc1)SCC2
 : 19%	5	-0.6%	-13%	2.7	-1	-11%
> Cc1cc(C(=O)N/N=C/c2ccccc2[N+](=O)[O-])c(C)o1
 : -4%	0	-4.7%	-13%	-3.6	-9	4%
> COc1ccccc1N(CC(=O)N1CCCCCC1)S(C)(=O)=O
 : -18%	0	0.0%	20%	-5.0	-2	4%
> O=C(Nc1ccccc1)c1ccc(CN2CCc3ccccc3C2)cc1
 : 25%	15	.	11%	-1.1	-12	-2%
> COc1ccc(-c2nnnn2-c2ccc(F)cc2F)cc1
 : 1%	-10	.	21%	-1.6	2	5%
> COc1ccc(Nc2nnc(SC(C)C(=O)NC3CC3)s2)cc1 (stereo unspecified)
 : -10%	.	.	.	.	-6	-5%
> N#CSC(c1ccccc1)c1nc2ccccc2[nH]c1=O (stereo unspecified)
 : -9%[15.4 µM]	4	0.3%	-17%	-4.3	-10	-29%
> CC1(C2CC2)NC(=O)N(CC(=O)N2CCN(c3ccc(F)cc3)CC2)C1=O (stereo unspecified)
 : 12%	1	-1.4%	.	.	-21	7%
> O=C1N[C@@H](Cc2ccccc2)C(=O)N2[C@@H]3N(S(=O)(=O)c4ccccc4)c4ccccc4[C@]3(Br)C[C@@H]12
 : -17%	.	0.4%	.	.	-9	?
> CCOC(=O)/C(C#N)=C/c1cc2ccc(C)cc2nc1Cl
 : 7%	-17	-4.2%	?	7.8	-2	26%
> Cc1ccc(S(=O)(=O)N2CCOCC2)cc1NC(=O)COC(=O)c1ccccc1OCc1c(C)noc1C
 : ?	0	-6.5%	7%	3.6	-5	-4%
> C[C@@H](NC(=O)c1nc[nH]c1C(=O)N[C@@H](Cc1ccccc1)C(=O)OC(C)(C)C)c1ccccc1
 : -19%	11	1.0%	36%	-8.0	-6	1%
> CN1N=C(C(C)(C)C)CC1=O
 : 16%[15.4 µM]	.	.	8%	0.6	-5	10%
> CCc1ccccc1NC(=O)c1ccc(-c2csc(C)n2)cc1
 : -44%[inhibitor]	23	.	10%	-1.0	4	5%
> O=C(CCc1ccc(CCC(=O)c2cccs2)s1)c1cccs1
 : 16%	26	-3.5%	?	0.5	-7	0%

Taken from above.
Result of CCCCN(CC)CCCNC(=S)Nc1ccc2nc(N3CCN(CC)CC3)cc(C)c2c1 in D2 PAM: -10
Result of CC1(C2CC2)NC(=O)N(CC(=O)N2CCN(c3ccc(F)cc3)CC2)C1=O (stereo unspecified) in gsp ag: 12%
Result of Cc1ccc(/C=C(\NC(=O)c2ccccc2)C(=O)NCCc2ccccn2)o1 in gsp antagonist: 6%

A draw from above in order of count of non-hydrogen atoms, falling.
Values in the order – gsp ag	TRPV1 potentiator	ClpP mod	Sfp PPTase inh	Menin-MLL FL inh	D2 PAM	gsp antagonist
> COc1ccc(-c2noc(-c3ccc(Cl)cc3[N+](=O)[O-])n2)cc1OC
 : -2%	2	28µM*	-21%	-0.9	89*	-10%
> COc1ccc(Nc2nnc(SC(C)C(=O)NC3CC3)s2)cc1 (stereo unspecified)
 : -10%	.	.	.	.	-6	-5%
> O=C1c2ccccc2NC(c2ccc(Br)s2)N1O (stereo unspecified)
 : 16µM*	.	-1.9%	.	.	-21	-2%
